MLL AF4-AF9 inh – MLL-AF4/AF9 protein interaction inhibition | P42568 | AlphaScreen, biotin-AF4 peptide binding to FLAG-AF9 | inhibition, % at 10 µM | hit rate 0.47% among 350,000 | AID 651704;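 active = every replicate reaching a set inhibition limit, whatever the replicate mean, cut at about 25% in these data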;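 note: 0% = plate neutral control median and 100% = total signal loss; the record names both 10 and 1 µM as test concentration; the first replicate is given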
Target sequence (P42568 whole entry, looked up): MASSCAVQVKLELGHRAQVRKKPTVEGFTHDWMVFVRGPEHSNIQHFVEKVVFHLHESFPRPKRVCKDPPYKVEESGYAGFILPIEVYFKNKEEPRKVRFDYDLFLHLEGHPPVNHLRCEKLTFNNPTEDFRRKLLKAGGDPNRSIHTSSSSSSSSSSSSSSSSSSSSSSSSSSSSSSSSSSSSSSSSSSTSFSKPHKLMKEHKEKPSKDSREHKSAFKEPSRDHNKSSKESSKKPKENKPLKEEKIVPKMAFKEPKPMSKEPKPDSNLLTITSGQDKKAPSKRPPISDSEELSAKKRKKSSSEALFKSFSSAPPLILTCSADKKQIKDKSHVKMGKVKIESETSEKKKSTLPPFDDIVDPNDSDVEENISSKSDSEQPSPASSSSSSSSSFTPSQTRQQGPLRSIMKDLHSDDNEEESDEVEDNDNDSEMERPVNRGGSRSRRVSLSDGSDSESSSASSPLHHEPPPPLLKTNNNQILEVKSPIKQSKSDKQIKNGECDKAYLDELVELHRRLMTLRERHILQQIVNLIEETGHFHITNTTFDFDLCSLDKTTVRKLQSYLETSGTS
FGF22 binding – FGF22 (human) thermal shift binding. recombinant FGF22 thermal shift, SYPRO orange fluorescence; percent of sucrose octasulfate shift, DMSO zero. calls only at 9.99 µM. hit rate 1.5% among 340,000. AID 651658;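 active = melting point raised past a set limit in the mean and every replicate; three in four hits are not shown here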
Target sequence (Q9HCT0 whole entry, looked up): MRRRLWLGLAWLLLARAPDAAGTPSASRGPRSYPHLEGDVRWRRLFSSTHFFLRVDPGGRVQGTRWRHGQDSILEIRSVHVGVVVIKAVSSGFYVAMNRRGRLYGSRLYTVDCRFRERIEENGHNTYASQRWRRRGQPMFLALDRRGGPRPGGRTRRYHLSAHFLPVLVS
Starred values were filed as active, the others as inactive; i = inactive.

Every second line gives: MLL AF4-AF9 inh	FGF22 binding
1) CN(C)C(=O)c1ccc(-c2ccc([C@H]3[C@@H](CO)N4CCCCN(C(=O)C5CCCC5)C[C@@H]34)cc2)cc1
→ -3.0	i
2) OC(CSc1ccncc1)CC(O)c1ccccc1 (stereo unspecified)
→ -3.9	i
3) [N-]=[N+]=Nc1ccccc1C[C@]1(C(=O)NCc2ccccc2)COC(c2ccc(OCCCO)cc2)=N1
→ 1.3	i
4) COC(=O)c1cn(CCCNC(=O)Nc2ccccc2)nn1
→ -4.2	i
5) Cc1nc(S(=O)(=O)N2CCN(Cc3cccc(OCCO)c3)CC2)cn1C
→ 2.1	i
6) O=S(=O)(c1ccc(-c2ccccc2)cc1)N1CCN(Cc2cccc(OCCO)c2)CC1
→ 4.6	i
7) Cc1ccc(S[C@]2(C(=O)NCC(F)(F)F)CC(=O)N(C3CCCCC3)[C@@H]2c2ccc(CO)cc2I)cc1
→ -2.3	i
8) Cn1cnc(S(=O)(=O)N2CCCCN3[C@H](CO)[C@H](c4ccc(C5=CCCC5)cc4)[C@@H]3C2)c1
→ -8.8	i
9) Cc1ccccc1-c1ccc([C@H]2[C@@H](CO)N3CCCCN(C(=O)Nc4cccc(F)c4)C[C@H]23)cc1
→ 10.1	i
10) COc1ccc([Si](C)(C)[C@@H]2[C@@H](CCO)O[C@]3(C(=O)N4c5c(cc(OC)cc53)C(C)=CC4(C)C)[C@H]2C)cc1
→ 6.3	i
11) O=S(=O)(c1ccc(F)cc1)N1CCCCN2[C@@H](CO)[C@@H](c3ccc(-c4ccccc4F)cc3)[C@@H]2C1
→ 0.0	i
12) CN(Cc1ccccc1)CC(O)CC(O)c1ccccc1 (stereo unspecified)
→ -2.9	i
13) O=C(c1cccnc1)N1CCCCN2[C@H](CO)[C@@H](c3ccc(C#Cc4ccccc4)cc3)[C@H]2C1
→ 12.6	i
14) Cc1noc(C)c1S(=O)(=O)Nc1ccc2c(c1)CC(=O)N([C@H](C)CO)C[C@H](C)[C@@H](CN(C)Cc1ccc(C(F)(F)F)cc1)O2
→ 4.0	i
15) O=C(N1CCOCC1)[C@@]1(Cc2ccccc2)N=C(c2ccc(OCCCO)cc2)O[C@H]1c1ccccc1
→ 5.3	i
16) C#Cc1ccc([C@H]2C=C(C(=O)NCc3nc4ccccc4[nH]3)O[C@@H](OCCCCO)C2)cc1
→ -1.8	i
17) CO[C@@H](CN(C)Cc1cc(F)ccc1F)[C@@H](C)CN([C@H](C)CO)S(=O)(=O)c1ccc(F)cc1
→ -4.0	i
18) CN(C)CC#Cc1ccc([C@@H]2[C@@H](CO)N3CCCCN(C(=O)C4CC4)C[C@H]23)cc1
→ -3.2	i
19) Cc1cccc(S(=O)(=O)N2CCCCN3[C@H](C2)[C@H](c2ccc(-c4ccccc4)cc2)[C@@H]3CO)c1
→ -4.8	i
20) C[C@H]1CN([C@@H](C)CO)C(=O)Cc2cc(NC(=O)Nc3ccc(C(F)(F)F)cc3)ccc2O[C@H]1CN(C)CC1CC1
→ 4.7	i

Another view of some results above.
item	SMILES	MLL AF4-AF9 inh	FGF22 binding
12	CN(Cc1ccccc1)CC(O)CC(O)c1ccccc1 (stereo unspecified)	-2.9	i
13	O=C(c1cccnc1)N1CCCCN2[C@H](CO)[C@@H](c3ccc(C#Cc4ccccc4)cc3)[C@H]2C1	12.6	i
9	Cc1ccccc1-c1ccc([C@H]2[C@@H](CO)N3CCCCN(C(=O)Nc4cccc(F)c4)C[C@H]23)cc1	10.1	i

The list goes on:
Every second line gives: MLL AF4-AF9 inh	FGF22 binding
21) C[C@@H]1CN([C@@H](C)CO)C(=O)Cc2cc(NC(=O)CCCCCC(=O)Nc3ccccc3N)ccc2O[C@H]1CN(C)Cc1ccc(-c2ccccc2)cc1
→ -0.2	i
22) CCCNC(=O)Cc1ccc(N2C(=O)CSC2c2ccccc2)cc1 (stereo unspecified)
→ -2.0	i
23) NC(=O)NCC#Cc1ccc2c(c1)[C@]1(C(=O)N2)[C@H](c2ccccc2OCCO)N2[C@H](c3ccccc3)[C@H](c3ccccc3)OC(=O)[C@H]2[C@@H]1C(=O)N1CCCCCCC1
→ 2.8	i
24) CCCNC(=O)[C@@H]1c2ccccc2C(=O)N(CC23CC4CC(CC(C4)C2)C3)[C@H]1c1ccc(CO)cc1
→ -1.6	i
25) S=C1NC2(CCCCCC2)NN1c1ccccc1
→ 0.0	i
26) OC[C@H]1[C@@H](c2ccc(C3=CCCC3)cc2)[C@@H]2CN(CCC(F)(F)F)CCCCN12
→ 10.7	i
27) NC(=O)NCC#Cc1ccc2c(c1)[C@]1(C(=O)N2)[C@H](C(=O)O)[C@H]2C(=O)O[C@H](c3ccccc3)[C@H](c3ccccc3)N2[C@@H]1c1ccc(OCCO)cc1
→ 7.1	i
28) CNC[C@@H]1Oc2ncc(C#CCN(C)C)cc2C(=O)N([C@H](C)CO)C[C@@H]1C
→ 6.0	i
29) C=CCOC(=O)[C@H]1[C@@H]2C(=O)O[C@@H](c3ccccc3)[C@@H](c3ccccc3)N2[C@@H](c2ccc(OCCOC(=O)[C@@H]3C[C@@H]4C(=O)N[C@@H](Cc5ccccc5)C(=O)N4[C@@H]3c3ccc(O)cc3)cc2)[C@]12C(=O)Nc1ccc(I)cc12
→ -2.5	i
30) O=C(OC[C@@H]1[C@H]2c3ccccc3OC1(CO)N=C1SCc3ccccc3CN12)c1ccccc1
→ 4.3	i
31) COC(=O)c1c2oc(c1C(=O)OC)C(=O)N[C@H](Cc1ccccc1)Cn1cc(nn1)[C@@H](Cc1ccccc1)NC(=O)N[C@@H](CO)CC2
→ 3.7	i
32) COC(=O)C[C@H]1CC[C@@H](N)[C@H](CO)O1
→ -1.4	i
33) COC(=O)[C@]1(Cc2ccccc2N=[N+]=[N-])N=C(c2ccc(OCCCO)cc2)O[C@@H]1c1ccccc1
→ 11.3	i
34) Cc1ccccc1S(=O)(=O)N1C[C@H](O)COC[C@H]2O[C@H](CC(=O)N3CCCCC3)CC[C@@H]21
→ 0.3	i
35) O=C(CC1CC1)N[C@H]1C[C@@H]2O[C@H](CO)CC[C@@H]2O[C@@H]1CCc1ccc(C#Cc2ccccc2)cc1
→ -4.1	i
36) CN1CCN(C(=O)C2=C[C@H](C(C)(C)C)C[C@H](OCc3ccc(CO)cc3)O2)CC1
→ -3.5	i
37) O=S(=O)(c1cccs1)N1CCCCN2[C@H](CO)[C@H](c3ccc(C4=CCCCC4)cc3)[C@H]2C1
→ -4.3	i
38) C[C@H](CO)N1C[C@H](C)[C@@H](CN(C)Cc2ccc(C(F)(F)F)cc2)Oc2c(NC(=O)c3ccncc3)cccc2C1=O
→ 15.9	i
39) Cc1ccccc1S(=O)(=O)N1CCCCN2[C@H](CO)[C@@H](c3ccc(-c4ccccc4)cc3)[C@H]2C1
→ 0.1	i
40) C[C@H](CO)N1C[C@H](C)[C@@H](CN(C)Cc2ccc(C(=O)O)cc2)Oc2cc(C#CCC3CCCC3)ccc2S1(=O)=O
→ -3.2	i

The listing continues:
Every second line gives: MLL AF4-AF9 inh	FGF22 binding
41) COc1ccc(COC[C@]23Oc4ccccc4[C@H]([C@H]2COC(=O)c2ccccc2)N(C(=O)CC(C)=O)C(=O)N3C)cc1
→ 0.5	i
42) COCC(=O)Nc1ccc2c(c1)C(=O)N(C)[C@H]1CC[C@H](CC(=O)Nc3ccccc3OC)O[C@@H]1CO2
→ -0.4	i
43) O=C(c1ccc(F)cc1)N1CCCCN2[C@H](C1)[C@@H](c1ccc(-c3ccc(F)cc3)cc1)[C@@H]2CO
→ -1.5	i
44) OC[C@@H]1[C@H](c2ccc(C#CC3CC3)cc2)[C@@H]2CN(CCC(F)(F)F)CCCCN12
→ 9.0	i
45) O=C(N[C@@H]1C=C[C@H](CC(=O)N2CCCCC2)O[C@H]1CO)c1ccccn1
→ 1.0	i
46) COC(=O)c1c2oc(c1C(=O)OC)C(=O)N[C@H](Cc1ccccc1)Cn1cc(nn1)[C@H](Cc1ccccc1)NC(=O)N[C@H](CO)CC2
→ -3.8	i
47) C[C@H]1CN([C@@H](C)CO)C(=O)Cc2cc(NS(=O)(=O)c3ccc(Cl)cc3)ccc2O[C@H]1CN(C)CC1CCCCC1
→ 7.6	i
48) COCC(=O)Nc1ccc2c(c1)C(=O)N(C)[C@H]1CC[C@H](CC(=O)Nc3ccccc3C)O[C@@H]1CO2
→ -1.0	i
49) [N-]=[N+]=NCc1ccccc1C[C@]1(C(=O)NCc2ccccc2)COC(c2ccc(OCCCO)cc2)=N1
→ -1.2	i
50) COc1cc(OC)c(NC(=O)NNC(=O)C(=O)NC2CC2)cc1Cl
→ -1.0	i
51) CO[C@H]1CN(C)C(=O)c2cc(NC(C)=O)ccc2OC[C@H](C)N(C(=O)c2cccnc2)C[C@H]1C
→ 0.0	i
52) C[C@H]1CN([C@@H](C)CO)C(=O)c2cc(C#Cc3cccc(F)c3)cnc2O[C@H]1CN(C)Cc1ccccn1
→ -10.2	i
53) NC(Cc1ccc(O)cc1)C(=O)NN=Cc1ccccc1O (stereo unspecified)
→ 8.2	i
54) CO[C@H]1O[C@H](CO)[C@@H](OC(=O)Nc2ccc(C(F)(F)F)cc2)[C@H](OC(=O)Nc2ccc3c(c2)OCO3)[C@H]1OC(=O)Nc1ccc2c(c1)OCO2
→ 2.6	i
55) CN(C)C(=O)c1ccc(-c2ccc([C@H]3[C@H]4CN(C(=O)C5CCCC5)CCCCN4[C@H]3CO)cc2)cc1
→ 11.1	i
56) C[C@@H]1CN([C@H](C)CO)C(=O)Cc2cc(NC(=O)c3ccncc3)ccc2O[C@H]1CN(C)C(=O)Nc1ccccc1
→ 6.9	i
57) CN(C)C(=O)c1ccc(-c2ccc([C@H]3[C@@H](CO)N4CCCCN(C(=O)C5CCC5)C[C@@H]34)cc2)cc1
→ -3.8	i
58) CC(=O)[C@]12O[C@]3(COC[C@H](c4ccccc4)N3C1=O)[C@@H]1C(=O)N(C)C(=O)[C@@H]12
→ -18.1	i
59) [N-]=[N+]=NCCCNC(=O)Nc1ccccc1
→ -0.5	i
60) CCO[C@H]1OC(C(=O)O)=C[C@@H](c2ccc(Br)cc2)[C@@H]1CCCO
→ -0.5	i

(further entries)
Every second line gives: MLL AF4-AF9 inh	FGF22 binding
61) O=C1O[C@H](c2ccccc2)[C@H](c2ccccc2)N2[C@H]1[C@@H](C(=O)N1CCCCCCC1)[C@]1(C(=O)Nc3ccc(C#CC4(O)CCCCCC4)cc31)[C@H]2c1ccc(OCCO)cc1
→ 1.0	i
62) COC(=O)[C@@]1(Cc2ccccc2CN=[N+]=[N-])N=C(c2ccc(OCCCO)cc2)O[C@H]1c1ccccc1N=[N+]=[N-]
→ 0.3	i
63) NCCCCCNC(=O)[C@@H]1C[C@@H]2C(=O)NCC(=O)N2[C@@H]1c1cccc(OCCO)c1
→ -3.1	i
64) C=C[C@@H](OC)[C@H](OC(=O)Nc1ccc(SC)cc1)c1ccc(OCCO)cc1
→ -0.9	i
65) COc1ccc(NC(=O)N2CCCCN3[C@H](CO)[C@H](c4ccc(C5=CCCC5)cc4)[C@@H]3C2)cc1
→ -5.7	i
66) C[C@H](CO)N1C[C@H](C)[C@@H](CN(C)C(=O)C2CCC2)Oc2ncc(C#CC3CCCC3)cc2C1=O
→ -4.2	i
67) CO[C@@H]1CN(C)C(=O)c2cc(NC(=O)Nc3c(C)noc3C)ccc2OC[C@@H](C)N(CC2CC2)C[C@H]1C
→ -0.8	i
68) C=CCNC(=O)[C@@H]1[C@H]2C(=O)O[C@H](c3ccccc3)[C@H](c3ccccc3)N2[C@H](c2ccc(O)cc2)[C@@]12C(=O)Nc1ccc(C#CC3=CCCCC3)cc12
→ 0.8	i
69) C[C@@H]1CCCCO[C@H](CN(C)C(=O)Nc2ccccc2)[C@H](C)CN([C@@H](C)CO)C(=O)c2cc(NC(=O)C3CCCCC3)ccc2O1
→ 1.4	i
70) CNC(=O)C[C@@H]1CC[C@@H]2[C@@H](COc3ccc(NC(=O)Nc4cccc(Cl)c4)cc3C(=O)N2C)O1
→ -0.7	i
71) C[C@@H]1CN([C@@H](C)CO)C(=O)c2cccc(NC(=O)c3nc4ccccc4s3)c2O[C@H]1CN(C)C(=O)Nc1cccc2ccccc12
→ -0.1	i
72) CO[C@@H]1CN(C)C(=O)c2cc(NC(=O)C3CCOCC3)ccc2OC[C@@H](C)N(S(=O)(=O)c2ccc(Cl)cc2)C[C@H]1C
→ -5.5	i
73) C[C@H](CO)N1C[C@H](C)[C@@H](CN(C)Cc2cccnc2)Oc2ncc(C#CC3CCCCC3)cc2C1=O
→ 10.7	i
74) Cc1ccc(-c2ccc([C@H]3[C@@H](CO)N4CCCCN(S(=O)(=O)c5cccc(C)c5)C[C@H]34)cc2)cc1
→ -3.2	i
75) COc1ccccc1C#Cc1ccc([C@@H]2[C@H](CO)N3CCCCN(C(=O)C4CCCC4)C[C@@H]23)cc1
→ 6.5	i
76) C[C@H](CO)N1C[C@H](C)[C@H](CN(C)Cc2ccc(Cl)c(Cl)c2)Oc2c(NC(=O)Nc3ccc(C(F)(F)F)cc3)cccc2C1=O
→ 0.9	i

Single entries from the list.
Value of `C[C@@H]1CN([C@@H](C)CO)C(=O)c2cccc(NC(=O)c3nc4ccccc4s3)c2O[C@H]1CN(C)C(=O)Nc1cccc2ccccc12` under MLL AF4-AF9 inh: -0.1
Value of `C=CCNC(=O)[C@@H]1[C@H]2C(=O)O[C@H](c3ccccc3)[C@H](c3ccccc3)N2[C@H](c2ccc(O)cc2)[C@@]12C(=O)Nc1ccc(C#CC3=CCCCC3)cc12` under MLL AF4-AF9 inh: 0.8

Whole records from above. Values in the order: MLL AF4-AF9 inh	FGF22 binding
C[C@H](CO)N1C[C@H](C)[C@@H](CN(C)Cc2cccnc2)Oc2ncc(C#CC3CCCCC3)cc2C1=O in the list: 10.7	i
Cc1ccc(-c2ccc([C@H]3[C@@H](CO)N4CCCCN(S(=O)(=O)c5cccc(C)c5)C[C@H]34)cc2)cc1 in the list: -3.2	i
CO[C@@H]1CN(C)C(=O)c2cc(NC(=O)Nc3c(C)noc3C)ccc2OC[C@@H](C)N(CC2CC2)C[C@H]1C in the list: -0.8	i

Compound activity (PubChem BioAssay)

These rows are one share of the data; rates above refer to the full screens.
